Assay outcomes deposited in PubChem by several laboratories.
RGS16-Gao HTS: modulators of RGS16 binding to Galphao, primary screen, biochemical, human proteins, multiplexed bead flow cytometry. Regulator of G-protein signaling 16 (Homo sapiens) + Guanine nucleotide-binding protein …. bead-based flow cytometry RGS16-Galphao binding, fluorescence; actives lie on both sides. binding response (% of control), % at 10 µM. actives 0.38% (n = 220,000). AID 1441, 2008;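 active means below 25% or above 175%, edge rows of some plates excepted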;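 further: Galphao activated by GDP with aluminum fluoride before binding; 100% = wells without compound and 0% = beads without RGS; some results beyond the cut were filed as inactive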
Target sequence (O15492 whole entry, looked up): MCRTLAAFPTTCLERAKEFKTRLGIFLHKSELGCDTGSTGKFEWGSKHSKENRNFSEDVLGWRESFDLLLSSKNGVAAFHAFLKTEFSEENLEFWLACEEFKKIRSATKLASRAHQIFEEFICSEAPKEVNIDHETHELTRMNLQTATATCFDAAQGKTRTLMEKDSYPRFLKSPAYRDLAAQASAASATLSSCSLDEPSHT
Target sequence (P09471 whole entry, looked up): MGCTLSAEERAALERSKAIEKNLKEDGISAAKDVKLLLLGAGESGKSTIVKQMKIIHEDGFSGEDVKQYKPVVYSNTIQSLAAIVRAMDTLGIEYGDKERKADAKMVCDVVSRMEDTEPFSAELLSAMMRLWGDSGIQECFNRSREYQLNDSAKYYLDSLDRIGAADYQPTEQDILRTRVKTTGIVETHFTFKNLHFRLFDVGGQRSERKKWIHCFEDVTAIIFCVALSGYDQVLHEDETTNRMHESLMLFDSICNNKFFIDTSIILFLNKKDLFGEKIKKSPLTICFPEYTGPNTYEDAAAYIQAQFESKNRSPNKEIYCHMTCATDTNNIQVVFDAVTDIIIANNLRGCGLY
HSV augment: enhancers of HSV replication in host cells, fold increase, host cell viability; actives 0.005% (n = 220,000); HSV replication augmentation in cells; maximum fold increase;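 active means peak rise of 1.5-fold or more in the series; tested in PC3 cells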;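 further: first round at 10 µM; read as green reporter fluorescence; hits show the peak of a series up to 25 µM; 1 = signal of infected wells without compound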
GALR2 ag: GALR2 receptor agonists, primary screen, cell-based; GALR2-expressing cells, agonist activation read-out; activation, %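 (tested at 5 µM)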; actives 0.48% (n = 140,000); AID 803, 2007;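 active means above mean plus 3 SD of all compounds, about 5% in these data, not always enough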;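 further: 0% = vehicle buffer wells and 100% = reference agonist at full effect; tested in CHO reporter cells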
Target sequence (O43603 whole entry, looked up): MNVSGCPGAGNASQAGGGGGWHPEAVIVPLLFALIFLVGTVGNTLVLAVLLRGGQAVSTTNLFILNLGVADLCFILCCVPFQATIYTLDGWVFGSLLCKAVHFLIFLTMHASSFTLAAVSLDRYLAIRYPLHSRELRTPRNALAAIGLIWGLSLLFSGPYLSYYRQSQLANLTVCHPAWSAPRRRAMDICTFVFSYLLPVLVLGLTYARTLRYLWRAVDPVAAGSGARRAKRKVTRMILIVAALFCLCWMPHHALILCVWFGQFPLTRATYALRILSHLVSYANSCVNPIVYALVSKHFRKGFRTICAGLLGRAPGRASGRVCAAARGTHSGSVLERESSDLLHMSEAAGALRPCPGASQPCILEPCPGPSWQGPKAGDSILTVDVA
PKD1 kinase inh: inhibitors of human PKD1 kinase, biochemical, fluorescence polarization. Serine/threonine-protein kinase D1 (Homo sapiens), Q15139. PKD1 kinase fluorescence polarization assay. inhibition, %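 (about 10 µM by stock and volumes)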. actives 0.056% (n = 200,000). AID 797, 2007;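 active means inhibition of 50% or more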;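 further: controls were vehicle for no effect and a reference inhibitor for full effect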
Insulin prom inh: inhibitors of insulin promoter-driven GFP, primary screen, imaging, TRM-6 cells (human fetal islet line), eGFP reporter, cell count. AID 1273, 2008. actives 0.9% (n = 130,000). inhibition, % at 2 µM. reporter expression induced with tamoxifen;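 active means inhibition above the mean plus 3 SD, with well images judged a real hit on visual review, cut at about 60% in these data, passing the limit was not always enough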
Insulin prom inh cell count: recorded beside Insulin prom inh, whose call it bears; normalized cell count, %; measured here: cell count, toxicity; reference of the scale not given here;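 cells exposed to compound for 48 h; stained nuclei by imaging scaled within each plate; lower means fewer cells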
HSV augment primary fold: further read-out of HSV augment, marked with its call; fold increase; compound at 10 µM; measured here: primary screen fold increase 10 uM; tested in PC3 cells;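 GFP signal in the first replicate; 1 = infected wells without compound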
* hit, by the source's call; i = inactive; · = no result given.

SMILES	RGS16-Gao HTS	HSV augment	HSV augment primary fold	GALR2 ag	PKD1 kinase inh	Insulin prom inh	Insulin prom inh cell count
O=[N+]([O-])c1cc(-c2cnc3ccccc3n2)ccc1Oc1ccc(F)cc1	105	i	0.93	0.8	8	13	111
Cc1ccc(C(=O)NCCCNc2ccccc2[N+](=O)[O-])cc1	93	i	0.91	·	1	·	·
CCSCc1nnc(SCC(=O)Nc2nc(C)cs2)n1C	98	i	1	·	-3	12	41
O=C(CSc1cn(CCNC(=O)c2cccs2)c2ccccc12)NCC1CCCO1 (stereo unspecified)	101	i	0.97	-1.1	-13	-20	89
Cc1ccccc1OCCCC(=O)Nc1ccccc1C(F)(F)F	104	i	0.88	0.4	10	7	107
COc1ccc(-c2noc(CN(C(=O)c3c(-c4ccccc4Cl)noc3C)C(C)C)n2)cc1	44	i	0.95	-0.6	-8	-30	126
O=C(c1cc(=O)[nH]c2ccccc12)N1CCN(c2cccc(C(F)(F)F)c2)CC1	102	i	0.89	·	1	·	·
Nc1nnn(CC(=O)N/N=C/C=C/c2ccccc2)n1	103	i	0.99	·	·	·	·
COc1ccc(C2CC(=O)c3cnc(NC(=O)c4cc(OC)cc(OC)c4)nc3C2)cc1 (stereo unspecified)	90	i	0.89	-0.3	-14	·	·
COc1cc(C(=O)OCCN2CCOCC2)ccc1O	101	i	1.2	-3.4	-3	·	·
OC1(c2cccc(C(F)(F)F)c2)CCN(Cc2nnnn2Cc2ccccc2)CC1	94	i	0.73	·	0	·	·
CCOc1ccc2c(c1)nc(C)n2C	97	i	1	·	·	·	·
COCC1CCN(Cc2cn[nH]c2-c2ccc(OC)c(F)c2)C1 (stereo unspecified)	99	i	0.69	·	·	·	·
O=C(NN1CCOCC1)c1cc(-c2ccc(Br)cc2)nc2ccccc12	109	i	0.92	-2.6	-4	-37	120
CCC(=O)Nc1ccc(Br)cn1	95	i	0.95	·	5	·	·
COCC1=C(C(=O)OC)C(c2ccco2)n2ncnc2N1 (stereo unspecified)	105	i	1.2	·	·	·	·
CC1CCN(C(=O)CCc2nc3cc(S(=O)(=O)N(C)C)ccc3n2C)CC1	113	i	0.87	-0.3	-13	-9	118
COCCNC(=O)CN(C)S(=O)(=O)c1ccc(Br)cc1	94	i	1	-1.0	0	-25	95
CCn1cc(C(=O)NC(=S)Nc2sc3c(c2C(=O)OC)CCCCCC3)cn1	102	i	1	0.2	-5	·	·
O=C(NCc1ccncc1)C(=O)Nc1nc(C23CC4CC(CC(C4)C2)C3)cs1	102	·	·	-1.1	0	·	·
Cc1ccccc1NC(=O)c1sc(Cl)nc1C	100	i	0.95	-0.6	-6	17	128
Cc1c(NC(=O)CSc2ncn[nH]2)c(=O)n(-c2ccccc2)n1C	91	i	0.9	-3.5	-5	38	125
CCOC(=O)c1ccc(S(=O)(=O)Nc2cc(C(C)(C)C)no2)cc1	101	i	1	-1.9	-1	-243	91
CSc1cccc(CN2CCC(CO)(Cc3cccc(C(F)(F)F)c3)CC2)c1	108	i	1	·	-3	·	·
CNC(=O)CSc1nc(-c2ccccc2)c(-c2ccccc2)o1	98	i	0.98	·	-3	-14	98
CN1CCN(C(=O)c2cnn3c(C(F)(F)F)cc(-c4ccc5c(c4)OCO5)nc23)CC1	188	i	0.87	0.0	1	·	·
Cc1ccc(OCC(=O)OCC(=O)Nc2sccc2C(N)=O)cc1C	100	i	0.98	-1.1	7	·	·
CCOC(=O)N1CCC(NC(=O)C2CCCN(S(=O)(=O)c3cccnc3)C2)CC1 (stereo unspecified)	102	i	0.92	-1.8	-11	·	·
O=C(CN1C(=O)COCC1=O)N1CCOCC1	134	i	0.82	0.7	-4	-23	130
Cc1nc(NC(=S)NC(=O)c2cccs2)sc1C(=O)N(C)C	105	i	0.88	-0.2	-2	0	141
CC(=O)Nc1ccc(NC(=O)COc2ccc([N+](=O)[O-])cc2)cc1	74	i	0.96	·	-4	20	58
COc1ccc(OC)c(NC(=O)CC(NC(C)=O)c2ccccc2)c1 (stereo unspecified)	95	i	0.89	·	4	25	113
Cc1ccc(NC(=S)NCCc2ccccc2)nc1	105	i	0.95	·	1	·	·
O=C(c1ccc(C(F)(F)F)cc1)N1CCC(=O)N(C(COCc2ccccc2)Cc2ccccc2)CC1 (stereo unspecified)	48	i	0.88	-1.8	4	-24	85
Cc1ccc(CNn2cnnc2SCc2ccc(F)cc2)cc1	88	i	1.1	-1.5	-7	-450	57
CCc1ccc(NC(=O)CSc2nc3ccccc3c(=O)n2CCCN2CCC(C)CC2)cc1	95	i	0.66	·	1	20	113
Cc1ccc(CCN2CC(C(=O)NCCCN3CCN(C)CC3)CC2=O)cc1 (stereo unspecified)	99	i	0.83	-0.3	-18	·	·
O=C(NCC1(N2CCCCC2)CCCCC1)c1ccc(S(=O)(=O)N2CCCC2)cc1	103	i	0.99	·	·	·	·
O=C(c1ccco1)N(CCC(c1ccccc1)c1ccco1)Cc1ccc(F)cc1 (stereo unspecified)	82	i	0.92	-1.9	-7	·	·
COc1cccc(C2Oc3ccccc3C3CC(c4cccs4)=NN32)c1 (stereo unspecified)	101	i	0.96	·	·	·	·
Cc1nc2nc(CSc3nc4ccccc4s3)cc(=O)n2[nH]1	100	i	0.97	-3.1	18	·	·
O=P(OCC1CC1)(c1ccccc1)c1ccccc1	108	i	0.83	-0.9	-7	-4	139
Nc1c(C(=O)NCCc2ccc(Cl)cc2)sc2ccc(S(=O)(=O)N3CCCCC3)cc12	97	i	1.1	-1.2	1	·	·
CC(=O)c1cccc(NC(=O)COc2nsnc2N2CCOCC2)c1	94	i	0.97	-2.5	5	0	115
Cc1oc(-c2ccc(Cl)cc2)cc1C(=O)O	101	i	1	·	·	·	·
Cc1ccc(/C=C2/C(=O)ON=C2c2ccccc2)o1	89	i	1.3	·	·	·	·
CCOC(=O)c1c(NC(=O)CN2CCOCC2)sc2c1CC(C)(C)OC2	99	i	1.1	-2.2	-9	·	·
NC(=O)[C@@H]1CCOc2c(F)cc([N+](=O)[O-])cc2C(=O)N[C@@H](CO)C(=O)NCC(=O)N1	122	i	0.93	-3.2	-9	50	73
CCOC(=O)c1nnn(-c2nonc2N)c1-c1ccc(Br)cc1	50	i	0.9	·	-5	-36	54
CCCCc1nc2ccccc2n1CC(=O)NN	108	i	1.1	-0.1	-4	·	·
CCn1cc(CN2N=C(C)CC2c2ccccc2)c(C)n1 (stereo unspecified)	105	i	1	·	2	45	128
CNCCCOc1ccc(C(C)(C)c2ccccc2)cc1	96	·	·	-0.9	0	·	·
COc1cccc2cc(-c3nnc(SCC(=O)NCCc4ccccc4)n3C)oc12	102	i	1	9.4	-4	-43	89
Cn1c(CNC(=O)c2ccccc2F)nnc1SCc1ccc(Cl)cc1	98	i	1.3	·	8	·	·
O=C(NCCOC(=O)c1ccccc1C(=O)OCCNC(=O)c1cccnc1)c1cccnc1	100	i	0.92	-1.9	4	-12	112
COc1ccc(Cl)cc1C(=O)Nn1c(-c2cccs2)nc2ccccc2c1=O	114	i	0.87	-1.3	-7	-22	126
COC(=O)C(Cc1c[nH]c2ccccc12)NC(=O)C(C)C (stereo unspecified)	106	i	1	-1.1	-4	-18	87
COc1ccc(CCNC(=O)CCn2c(=O)[nH]c3cc(OC)c(OC)cc3c2=O)cc1OC	99	i	1.1	-0.5	-14	50	94
O=C(O)c1cccnc1Sc1ncnc2sc3c(c12)CCC3	94	i	1	·	·	·	·
CC(=O)Oc1ccccc1C1=NN(C(=O)/C=C/c2ccccc2)C(c2ccccc2)C1 (stereo unspecified)	89	i	1	-0.5	12	·	·
Next section.
SMILES	RGS16-Gao HTS	HSV augment	HSV augment primary fold	GALR2 ag	PKD1 kinase inh	Insulin prom inh	Insulin prom inh cell count
NC1C2CN(c3nc4c(cc3F)c(=O)c(C(=O)O)cn4-c3ccc(F)cc3F)CC12 (stereo unspecified)	87	i	1	1.9	3	-130	77
O=C(CNC1CCCCC1)Nc1ccc([N+](=O)[O-])cc1C(=O)Nc1ccccc1F	104	i	0.88	·	-10	·	·
CCOC(=O)c1cccc(NC(=O)CCS(=O)(=O)c2cccs2)c1	99	i	0.78	-1.2	-19	-44	66
COCc1[nH][nH]c(=O)c1C=Nc1ccc(Oc2ccccc2)cc1	108	i	0.98	-1.3	3	-17	116
O=C1CCC(C(=O)OCC(=O)C23CC4CC(CC(C4)C2)C3)N1 (stereo unspecified)	101	i	0.99	-0.9	-1	35	157
COc1ccc(NC(=O)Cn2c(=O)oc3ccccc32)cc1	93	i	1.1	·	·	·	·
Cc1nn(-c2ccccc2)c(=O)c2noc(C)c12	102	i	1	·	·	·	·
O=C1c2ccc([N+](=O)[O-])cc2NC(c2ccco2)N1/N=C/c1ccco1 (stereo unspecified)	103	i	0.89	·	·	·	·
CC1CCC(C(C)C)C(OC(=O)C[n+]2cccc(C(N)=O)c2)C1 (stereo unspecified)	99	i	1	-2.5	-1	-60	125
O=C(Nc1cccc(Cl)c1)N1CCN2C(=O)c3ccccc3C12c1ccccc1 (stereo unspecified)	101	i	0.85	-2.2	2	0	104
COc1ccc(/C=C(/C#N)C(=O)Nc2cccc([N+](=O)[O-])c2)cc1C(=O)O	109	i	0.98	·	-7	·	·
CCOc1ccc(CN2CCC(C(=O)N3CCN(c4ccccc4F)CC3)CC2)cc1OC	114	i	0.78	-0.8	3	-74	147
COc1ccc(-c2c3c(=O)n(C)c(=O)n(C)c3cn2-c2ccccc2O)cc1	102	i	0.94	·	·	·	·
Cc1nnc2sc(-c3ccccn3)nn12	94	i	0.83	-1.0	6	0	124
CCOc1cccc(C(=O)NC(=S)Nc2ccc(N3CCCC3)cc2)c1	101	i	0.96	-3.2	-9	15	85

Seven entries from above, with two lines to a compound.
Values run as follows: RGS16-Gao HTS | HSV augment | HSV augment primary fold | GALR2 ag | PKD1 kinase inh | Insulin prom inh | Insulin prom inh cell count
NC1C2CN(c3nc4c(cc3F)c(=O)c(C(=O)O)cn4-c3ccc(F)cc3F)CC12 (stereo unspecified)
    87 | i | 1 | 1.9 | 3 | -130 | 77
O=C(CNC1CCCCC1)Nc1ccc([N+](=O)[O-])cc1C(=O)Nc1ccccc1F
    104 | i | 0.88 | · | -10 | · | ·
CCOC(=O)c1cccc(NC(=O)CCS(=O)(=O)c2cccs2)c1
    99 | i | 0.78 | -1.2 | -19 | -44 | 66
COCc1[nH][nH]c(=O)c1C=Nc1ccc(Oc2ccccc2)cc1
    108 | i | 0.98 | -1.3 | 3 | -17 | 116
O=C1CCC(C(=O)OCC(=O)C23CC4CC(CC(C4)C2)C3)N1 (stereo unspecified)
    101 | i | 0.99 | -0.9 | -1 | 35 | 157
COc1ccc(NC(=O)Cn2c(=O)oc3ccccc32)cc1
    93 | i | 1.1 | · | · | · | ·
Cc1nn(-c2ccccc2)c(=O)c2noc(C)c12
    102 | i | 1 | · | · | · | ·

(further entries)
SMILES	RGS16-Gao HTS	HSV augment	HSV augment primary fold	GALR2 ag	PKD1 kinase inh	Insulin prom inh	Insulin prom inh cell count
CNc1ccc(/C=C2\COc3ccccc3C2=O)cc1[N+](=O)[O-]	98	i	0.68	0.0	-2	4	62
Cc1c(-n2c(SCC(N)=O)nc3ccccc3c2=O)c(=O)n(-c2ccccc2)n1C	98	i	1.1	·	-2	·	·
Cc1ccc(NC(=O)CCSc2nc(C)cc(C)n2)cc1	104	i	0.91	-1.2	-2	-21	82
CCCCCC(=O)Nc1ccc(-c2csc(N)n2)cc1	99	i	0.97	·	-3	·	·
CC1=NN(CCC#N)C(=O)/C1=C/c1ccc(N(C)C)cc1	112	i	0.91	·	-3	50	77
O=C(COC(=O)/C=C/C(=O)OCC(=O)NC12CC3CC(CC(C3)C1)C2)NC12CC3CC(CC(C3)C1)C2	96	i	0.86	0.4	-9	19	120
COc1ccc(OC)c(-n2c(C)cc(C=O)c2C)c1	98	i	1	·	-1	0	63
CC(C)(C)C1CCC(OCC(O)CN2CCN(c3ccccc3)CC2)CC1 (stereo unspecified)	106	i	0.87	-1.8	-1	-19	52
CC(NC(=O)COC(=O)CCNC(=O)c1ccco1)C12CC3CC(CC(C3)C1)C2 (stereo unspecified)	105	i	1	-0.6	-14	·	·
Cc1cc(=O)[nH]c(N/N=C2/CCCC/C2=C\c2ccccc2)n1	95	i	0.88	·	·	·	·
CCCCc1ccc(NC(=O)N[C@@H](C)C(=O)O)cc1	99	i	0.99	·	·	·	·
O=C(O)CCn1ccnc1-c1ccccc1	98	i	0.92	-1.9	-7	-11	49
